# Source: PubChem
# ID4 binder = ID4 (human) binding; small molecule microarray, Flag-ID4 binding, fluorescence F/B; calls only; 1.2% of 31,000 active;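 active means spot signal over background at p below 0.07 in all four prints; compounds were printed on slides so no solution concentration is given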;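 further: a binder raises fluorescence above local background on the spot; about 2 pmol printed per array spot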
# Target sequence (P47928 whole entry, looked up): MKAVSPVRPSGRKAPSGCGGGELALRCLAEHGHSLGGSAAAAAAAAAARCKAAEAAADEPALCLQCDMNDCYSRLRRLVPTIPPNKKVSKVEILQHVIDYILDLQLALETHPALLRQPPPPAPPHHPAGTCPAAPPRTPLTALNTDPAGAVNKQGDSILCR
# mut p53 SMM = binds human mutant p53 on microarray. small molecule microarray binding, anti-GST fluorescence. calls only. 0.4% of 17,000 active;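 active means compounds whose four printed spots each glow above background more than chance allows, each with a p-value under 7%; compounds were printed on slides so no solution concentration is given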;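 further: about 2 pmol printed per array spot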
# STAT3 binder = STAT3 (human) binding; Small molecule microarray, His-STAT3 binding, anti-His fluorescence; calls only; 0.2% of 17,000 active; AID 624138;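 active means compounds whose four printed spots each show fluorescence over background unusually high for their array block, chance value under 7%; compounds were printed on slides so no solution concentration is given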;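 further: about 2 pmol printed per array spot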
# c-Myc SMM = binders of human c-Myc; P01106; small molecule microarray, His-c-Myc binding, anti-His fluorescence; calls only; 1.5% of 17,000 active;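 active means spot fluorescence over background with P-value below 7% in all four replicate spots, showing protein binding; compounds were printed on slides so no solution concentration is given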;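 further: score is binary with 100 for all four spots passing and 0 otherwise; about 2 pmol printed per array spot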
# Target sequence (P01106 whole entry, looked up): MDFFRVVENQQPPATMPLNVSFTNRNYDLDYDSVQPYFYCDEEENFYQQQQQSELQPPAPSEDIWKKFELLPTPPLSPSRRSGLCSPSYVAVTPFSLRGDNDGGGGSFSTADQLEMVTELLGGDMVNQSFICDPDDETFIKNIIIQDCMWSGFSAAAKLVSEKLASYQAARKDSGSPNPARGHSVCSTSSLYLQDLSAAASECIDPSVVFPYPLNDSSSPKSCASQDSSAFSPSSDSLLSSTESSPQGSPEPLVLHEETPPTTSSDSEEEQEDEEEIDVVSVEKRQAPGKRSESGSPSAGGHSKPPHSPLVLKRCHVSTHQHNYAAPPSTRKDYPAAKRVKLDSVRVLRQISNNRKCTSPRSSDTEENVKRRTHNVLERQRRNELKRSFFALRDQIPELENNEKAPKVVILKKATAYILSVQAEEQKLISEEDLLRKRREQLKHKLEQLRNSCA
# Calls only; i = inactive; · = no result given; + = active, no number.
SMILES,ID4 binder,mut p53 SMM,STAT3 binder,c-Myc SMM
C[C@@H]1CCCCO[C@H](CN(C)S(=O)(=O)c2ccccc2)[C@H](C)CN([C@@H](C)CO)C(=O)c2cc(NS(=O)(=O)c3ccc(F)cc3)ccc2O1,·,i,i,i
C[C@@H]1CN([C@H](C)CO)C(=O)c2cccc(NS(=O)(=O)c3cn(C)cn3)c2O[C@@H]1CN(C)C(=O)NC1CCCCC1,i,i,i,i
O=C(COc1ccc(Cl)cc1Cl)Nc1cc(Cl)ccc1C(=O)O,i,i,i,i
CCn1c(SCC(=O)Nc2c(Cl)cc(Cl)cc2Cl)nnc1-c1ccccc1Cl,i,i,i,i
C[C@H](CO)N1C[C@H](C)[C@@H](CN(C)C(=O)Nc2ccc(C(F)(F)F)cc2)Oc2c(NC(=O)c3nc4ccccc4s3)cccc2C1=O,i,i,i,i
Cc1ccccc1C(=O)NCCc1nc2ccccc2[nH]1,i,i,i,i
C[C@H]1CN([C@@H](C)CO)C(=O)c2cccc(NC(=O)NC3CCCCC3)c2O[C@@H]1CN(C)C(=O)Nc1ccc(C(F)(F)F)cc1,i,i,i,+
C[C@H](CO)N1C[C@H](C)[C@@H](CN(C)C(=O)Nc2ccccc2)Oc2ccc(NC(=O)CCN3CCOCC3)cc2CC1=O,i,i,i,i
Cc1nn(C(C)C(=O)Nc2ccccc2C(F)(F)F)c(C)c1[N+](=O)[O-] (stereo unspecified),i,i,i,i
C[C@H](CO)N1C[C@H](C)[C@H](CN(C)S(C)(=O)=O)Oc2ncccc2C1=O,i,i,i,i
CNC[C@H]1Oc2ccc(NS(=O)(=O)c3ccccc3)cc2CC(=O)N([C@H](C)CO)C[C@H]1C,i,i,i,i
O=C(OCc1cccc(O)c1O[C@@H]1O[C@H](CO)[C@@H](O)[C@H](O)[C@H]1O)C1(O)C(=O)C2C3C4C5C(C(=O)C(O)(C(=O)OCc6cccc(O)c6O[C@@H]6O[C@H](CO)[C@@H](O)[C@H](O)[C@H]6O)C2C53)C41 (stereo partly specified),i,i,i,i
CC(=O)OCO/N=[N+](\[O-])N1CCCC1,i,i,i,i
C[C@H]1CN([C@@H](C)CO)C(=O)c2cccc(NC(=O)c3ccc(-c4nccs4)cc3)c2O[C@H]1CN(C)C(=O)NC1CCCCC1,i,i,i,i
O=C1c2oc3ccccc3c(=O)c2C(c2ccc([N+](=O)[O-])cc2)N1CCCO (stereo unspecified),i,i,i,i
C[C@@H]1CN([C@H](C)CO)C(=O)c2cc(NC(=O)CCN3CCOCC3)ccc2O[C@H]1CN(C)CC1CCCCC1,·,i,i,i
CC(C)NC(=O)Nc1ccc2c(c1)C(=O)N([C@H](C)CO)C[C@@H](C)[C@@H](CN(C)C(=O)Cc1ccccc1)OCCCC[C@H](C)O2,i,i,i,i
CCn1c(SCC(=O)c2c[nH]c3ccccc23)nnc1-c1cccs1,i,i,i,i
CNC[C@H]1Oc2c(NC(=O)Nc3c(C)noc3C)cccc2C(=O)N([C@H](C)CO)C[C@@H]1C,i,i,i,i
Cc1noc(C)c1S(=O)(=O)Nc1ccc2c(c1)CC(=O)N([C@@H](C)CO)C[C@@H](C)[C@@H](CN(C)Cc1ccncc1)O2,i,i,i,i
CC12CCC3c4ccc(O)cc4CC(CCCCCCCCCS(=O)CCCC(F)(F)C(F)(F)F)C3C1CCC2O (stereo unspecified),i,i,i,i
N#Cc1cc2c(nc1SCC(=O)Nc1ccc(Cl)cc1)CCCCCC2,i,i,i,i
C[C@H]1CN([C@@H](C)CO)C(=O)c2cc(NC(=O)NC3CCCCC3)ccc2O[C@H]1CN(C)C(=O)Nc1ccc(F)cc1,i,i,i,i
C[C@@H]1O[C@@H](Oc2cc(O)c3c(=O)c(O[C@@H]4O[C@@H](C)[C@H](O)[C@@H](O[C@@H]5OC[C@@H](O)[C@H](O)[C@H]5O)[C@H]4O[C@@H]4O[C@H](CO)[C@@H](O)[C@H](O)[C@H]4O)c(-c4ccc(O)c(O)c4)oc3c2)[C@H](O)[C@H](O)[C@H]1O,i,i,i,i
COc1cc(/C=C/c2cc(O)cc(O[C@@H]3O[C@H](CO)[C@@H](O)[C@H](O)[C@H]3O)c2)ccc1O[C@@H]1O[C@H](CO)[C@@H](O)[C@H](O)[C@H]1O,·,i,i,i

# New compounds follow.
SMILES,ID4 binder,mut p53 SMM,STAT3 binder,c-Myc SMM
Cc1noc(C)c1NC(=O)N(C)C[C@@H]1OCCCC[C@@H](C)Oc2ccc(NC(=O)C3CCCCC3)cc2C(=O)N([C@H](C)CO)C[C@@H]1C,·,i,i,i
C[C@H](CO)N1C[C@H](C)[C@H](CN(C)C)Oc2ccc(NS(=O)(=O)c3ccccc3)cc2CC1=O,i,i,i,i
COc1ccc(CN(C)C[C@@H]2Oc3c(NS(=O)(=O)c4c(C)noc4C)cccc3C(=O)N([C@@H](C)CO)C[C@@H]2C)cc1,i,i,i,i
CCC/C=C/C=C/C1CC(O)C(O)C(O)C1CO (stereo unspecified),i,i,i,i
COc1ccccc1OCC(=O)Nc1c[nH]c(=O)[nH]c1=O,i,i,i,i
C[C@H]1CN([C@@H](C)CO)C(=O)CCCn2nncc2CO[C@H]1CN(C)Cc1ccc2c(c1)OCCN2C,i,i,i,i
C[C@H]1CN([C@@H](C)CO)C(=O)c2cc(N(C)C)ccc2O[C@@H]1CN(C)C(=O)NC1CCCCC1,i,i,i,i
CC1(C)CC(n2c(SCC(=O)c3ccc(Br)cc3)nc3ccccc3c2=O)CCO1 (stereo unspecified),i,i,i,i
COC(=O)c1ccccc1NC(=O)Cn1nc(C(F)(F)F)c2c1CCCCC2,i,i,i,i
C[C@@H]1CN([C@H](C)CO)C(=O)CCCn2cc(nn2)CO[C@H]1CN(C)Cc1ccc(Cl)c(Cl)c1,i,i,i,i
C[C@@H]1CCCCO[C@H](CN(C)C(=O)CCC(F)(F)F)[C@H](C)CN([C@H](C)CO)C(=O)c2cc(NC(=O)CCC(F)(F)F)ccc2O1,i,i,i,i
C[C@@H]1CCCCO[C@@H](CN(C)S(=O)(=O)c2ccccc2)[C@@H](C)CN([C@H](C)CO)C(=O)c2cc(NC(=O)CCC(F)(F)F)ccc2O1,i,i,i,i
COC(=O)c1ccc(Cl)c(NC(=O)CSc2nnc(-c3ccc(Cl)cc3)o2)c1,i,i,i,i
O=C1CCC(O)c2cccc(O)c21 (stereo unspecified),i,i,i,i
C[C@@H]1CN([C@H](C)CO)C(=O)c2cccc(NC(=O)c3nc4ccccc4s3)c2O[C@H]1CN(C)S(=O)(=O)c1cccs1,i,i,i,i
C[C@@H]1O[C@@H](O[C@@H]2[C@@H](O)[C@H](C)O[C@@H](OC[C@H]3O[C@@H](Oc4c(-c5ccc(O)cc5)oc5cc(O)cc(O)c5c4=O)[C@H](O)[C@@H](O)[C@H]3O)[C@@H]2O)[C@H](O)[C@H](O)[C@H]1O,·,i,i,i
O=C(CSc1nnnn1-c1ccccc1)Nc1ccc(-c2ccc([N+](=O)[O-])cc2)cc1,i,i,i,i
Cc1noc(C)c1NC(=O)Nc1ccc2c(c1)C(=O)N([C@H](C)CO)C[C@@H](C)[C@@H](CN(C)C(=O)NC1CCCCC1)O2,i,i,i,i
CC(C)(C)C(=O)OCOC(=O)[C@@H]1N2C(=O)[C@@H](N=CN3CCCCCC3)[C@H]2SC1(C)C,·,i,i,i
C[C@H]1CN([C@@H](C)CO)C(=O)Cc2cc(NS(=O)(=O)c3ccc(F)cc3)ccc2O[C@@H]1CN(C)Cc1ccccc1,·,i,i,i
CNC[C@H]1Oc2ccc(N(C)C)cc2CC(=O)N([C@H](C)CO)C[C@@H]1C,i,i,i,i
CC1=CC=C(C=O)C(C)(C)C1OC(=O)/C=C(\C)CO (stereo unspecified),i,i,i,i
CSCC[C@H](NC(=O)[C@H](Cc1ccccc1)NC[C@@H](NC[C@@H](N)CS)C(C)C)C(=O)O,·,i,i,i
CNC[C@@H]1Oc2c(NC(=O)C3CCOCC3)cccc2C(=O)N([C@H](C)CO)C[C@H]1C,i,i,i,i
C[C@@H]1CN([C@H](C)CO)C(=O)Cc2cc(NC(=O)Cc3cn(C)c4ccccc34)ccc2O[C@@H]1CN(C)Cc1ccncc1,i,i,i,i

# Further records follow:
SMILES,ID4 binder,mut p53 SMM,STAT3 binder,c-Myc SMM
Cn1c(SCC(=O)Nc2ccc([N+](=O)[O-])cc2)nc2ccccc21,i,i,i,i
C[C@H](CO)N1C[C@H](C)[C@H](CN(C)C(=O)Nc2ccc(C(F)(F)F)cc2)Oc2ccc(NC(=O)Nc3ccccc3)cc2C1=O,i,i,i,i
Cc1cccc(Cn2c(NCC(C)O)nc3c2c(=O)n(C)c(=O)n3C)c1 (stereo unspecified),i,i,i,i
CCc1c(O)cc(OC)c2c1O[C@H](C)CC2=O,i,i,i,i
COc1ccc(CN(C)C[C@H]2Oc3c(NC(=O)NC(C)C)cccc3C(=O)N([C@@H](C)CO)C[C@H]2C)cc1,i,i,i,i
COc1cc(C(=O)NC(C)C(=O)O)cc(OC)c1OC (stereo unspecified),i,i,i,i
C[C@@H]1CN([C@@H](C)CO)C(=O)c2cccc(NC(=O)Nc3ccc(F)cc3)c2O[C@@H]1CN(C)C,i,i,i,i
Cc1noc(C)c1NC(=O)N(C)C[C@@H]1Oc2ccc(NS(=O)(=O)c3cccs3)cc2C(=O)N([C@@H](C)CO)C[C@@H]1C,i,i,i,i
C[C@H]1CCCCO[C@H](CN(C)S(=O)(=O)c2cccs2)[C@@H](C)CN([C@@H](C)CO)C(=O)c2cc(NC(=O)Cc3ccccc3)ccc2O1,i,i,i,i
C[C@@H]1CN([C@@H](C)CO)C(=O)c2cccc(NS(=O)(=O)c3cccs3)c2O[C@H]1CN(C)Cc1ccc(C(=O)O)cc1,i,i,i,i
C[C@H]1CN([C@@H](C)CO)C(=O)Cc2cc(NS(=O)(=O)c3ccccc3)ccc2O[C@H]1CN(C)C(=O)Nc1ccccc1,i,i,i,i
C[C@@H]1CN([C@H](C)CO)C(=O)c2cc(NC(=O)Nc3ccc(F)cc3)ccc2O[C@H]1CN(C)C,i,i,i,i
NC(CSC(c1ccccc1)(c1ccccc1)c1ccccc1)C(=O)O (stereo unspecified),i,i,i,i
C[C@@H]1CN([C@@H](C)CO)C(=O)CCCn2cc(nn2)CO[C@@H]1CN(C)C(=O)Nc1ccc(C(C)(C)C)cc1,i,i,i,i
C[C@@H]1CN([C@@H](C)CO)C(=O)Cc2cc(NS(C)(=O)=O)ccc2O[C@@H]1CN(C)S(=O)(=O)c1cn(C)cn1,i,i,i,i
COc1ccc(S(=O)(=O)N(C)C[C@@H]2Oc3ccc(NC(=O)c4ccncc4)cc3C(=O)N([C@H](C)CO)C[C@@H]2C)cc1,i,i,i,i
C[C@@H]1CN([C@H](C)CO)C(=O)c2cccc(NS(=O)(=O)c3cccs3)c2O[C@H]1CN(C)Cc1ccc(Cl)c(Cl)c1,i,i,i,i
COc1ccc(NC(=O)Nc2ccc3c(c2)C(=O)N([C@@H](C)CO)C[C@@H](C)[C@@H](CN(C)Cc2ccncc2)O3)cc1,·,i,i,i
C=C(C(=O)O)[C@H]1C=C2[C@@H](C)[C@@H](O)[C@H](O)C[C@]2(C)CC1,·,i,i,i
C[C@@H]1CN([C@H](C)CO)C(=O)c2cc(N(C)C)ccc2O[C@H]1CN(C)S(=O)(=O)c1cn(C)cn1,i,i,i,i
C[C@@H]1CN([C@@H](C)CO)C(=O)c2cccc(NC(=O)Nc3cccc4ccccc34)c2O[C@H]1CN(C)S(C)(=O)=O,·,i,i,i
C[C@@H]1CN([C@H](C)CO)C(=O)c2cc(NC(=O)NC3CCCCC3)ccc2O[C@@H]1CN(C)C,i,i,i,i
C[C@H](CO)N1C[C@H](C)[C@H](CN(C)Cc2ccc3c(c2)OCCN3C)OCc2cnnn2CCCC1=O,i,i,i,i
C[C@@H]1CN([C@@H](C)CO)C(=O)c2cc(NC(=O)C3CC3)ccc2O[C@@H]1CN(C)Cc1ccc(Cl)c(Cl)c1,i,i,i,i
CNC[C@@H]1Oc2c(NC(=O)c3cnccn3)cccc2C(=O)N([C@@H](C)CO)C[C@H]1C,i,i,i,i
COc1ccc(S(=O)(=O)Nc2cccc3c2O[C@@H](CN(C)Cc2ccc4c(c2)OCO4)[C@@H](C)CN([C@H](C)CO)C3=O)cc1,i,i,i,i

# The list is partial, so the mix of outcomes need not match the whole.
